Assay outcomes (PubChem BioAssay)
ClpP mod – qHTS Assay for Activators of ClpP; Potency, µM (doses to about 57.5 µM), for the others: at the top dose activity change, negative = active; AID 651965, 2013; 1.9% of 340,000 active; ATP-dependent Clp protease proteolytic subunit (Bacillus subtilis (strain 168)), P80244; purified B. subtilis ClpP, FRET peptide cleavage, 20 min; active = well fitted falling curve with a large enough effect; inconclusive = small, poorly fitted or top-dose-only effect; inactive = no such curve, though single readings can be large or run the other way; note: the source files actives as falling curves though it sought activators and does not explain the sign; nearly all actives have a fitted effect of over 65% in size; many hits overshoot -100%
Target sequence (P80244 whole entry, looked up): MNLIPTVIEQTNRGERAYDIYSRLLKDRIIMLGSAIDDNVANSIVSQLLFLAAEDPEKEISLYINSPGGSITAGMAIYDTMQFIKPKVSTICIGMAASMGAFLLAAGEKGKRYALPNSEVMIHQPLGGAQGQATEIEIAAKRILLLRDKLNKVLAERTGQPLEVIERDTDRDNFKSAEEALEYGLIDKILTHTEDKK
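ClpP 10 microg/mL final, pH 8 Tris/KCl buffer with BSA, glycerol, Tween-20; compound pinned in; FRET-FV substrate; RT 20 min; Ex320/Em430; ΔFRET vs ADEP 5.8 microM, DMSO, no enzyme.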
* = called active by the depositor; ? = inconclusive. Potency is the fitted concentration of half-maximal effect. Some of the compounds tested; rates above refer to the full screens.

SMILES	ClpP mod
COc1ccccc1CNC(=O)c1ccc2[nH]c(C)c(C)c2c1	-14.8%
Cc1cccc(-n2c(CNC(=O)c3cccc(F)c3)nnc2SCC(=O)Nc2ccccc2F)c1	-0.4%
CN1C(=O)Cc2cc(S(=O)(=O)CCC(=O)Nc3ccc(F)c(Cl)c3)ccc21	0.0%
CC(C)N(C(=O)CSc1cn(CC(=O)N2CCCCCC2)c2ccccc12)C(C)C	-0.5%
CCOc1ccc(CCNC(=O)CCn2c(=O)c3cccn3c3ccc(F)cc32)cc1OCC	-0.6%
COc1cc(OC)c(Nc2nc3ccccc3c3nncn23)cc1Cl	4.0%
CC(C)(C)OC(=O)N1CCC(c2c(C(=O)N3CCN(Cc4ccccc4)CC3)cnn2-c2cccc(Cl)c2)CC1	-0.9%
CCCCNC(=O)C[C@@H]1C[C@@]2(C(=O)OC)CC(C)(C)CC=C2N(CCc2ccc(OC)c(OC)c2)C1=O	0.9%
CC1(C(=O)Nc2ccc3c(c2)OCCO3)CN(S(C)(=O)=O)CC(=O)N1Cc1cccc(C(F)(F)F)c1 (centres undefined)	1.5%
Cc1ccc(CCNC(=O)CS(=O)Cc2nc(-c3ccccc3C)oc2C)cc1 (centres undefined)	-6.6%
COc1cc(CN2CCc3nc(N4CCN(c5ncccn5)CC4)ncc3C2)cc(OC)c1OC	-4.4%
COc1ccc(NC(=O)CCCOc2cc(=O)n(C)c3ccccc23)c(OC)c1	-1.7%
Cc1ccc(SCC(=O)Nc2ccc3oc(-c4ccccc4F)nc3c2)cc1	4.3%
CC(C)c1ccc(Cc2cnc(NC(=O)c3ccc4c(c3)CC(c3ccccc3)OC4=O)s2)cc1 (centres undefined)	-7.1%
Cc1cccc(C)c1NC(=O)C(c1cc2ccccc2o1)N1CCN(C)CC1 (centres undefined)	-1.2%
O=C(NCc1cccc(Cl)c1)c1cc2c(s1)-c1ccccc1SC2	?
Cc1cccc(OC(=O)CSc2nnc(-c3cccs3)o2)c1C	87.3%
CCc1nn(CC(=O)Nc2c(C)cc(C)cc2C)c(=O)c2cc3sccc3n12	-5.4%
Cc1cccc(N(C)C(=O)C2CCC(CNS(=O)(=O)c3cccc4nsnc34)CC2)c1 (centres undefined)	1.0%
CC(C)CCn1c(=O)c2cccnc2n(CC(=O)Nc2ccccc2F)c1=O	6.3%
Cc1cc(C)cc(-n2c(SCC(=O)N3CCC(C)CC3)nc3c([nH]c4ccccc43)c2=O)c1	-25.1%
Cn1c(=O)n(-c2cccc(Cl)c2)c(=O)c2sc3ccccc3c21	3.7%
COC(=O)c1ccc(NC(=O)c2nc(SCc3ccccc3F)ncc2Cl)cc1	-9.7%
Cc1c2cnn(CC(=O)NCc3ccc(F)cc3)c(=O)c2c(C)n1Cc1ccccc1F	-1.7%
COc1cc(OC)cc(C(=O)Nc2ccc3nc(N4CCCCC4)cc(C)c3c2)c1	?
SMILES	ClpP mod
Cc1ccc(NC(=O)CN2C(=O)C(c3ccccc3)=NC23CCCCC3)cc1C	-1.4%
Cc1c(Nc2nc3ccccc3n3c(C)nnc23)cccc1C(=O)O	-2.3%
Brc1cc(Br)c[n+](CCc2ccccc2)c1	-2.1%
COc1ccccc1-n1ncc2c(=O)[nH]c(SCC(=O)Nc3cccc(F)c3)nc21	-2.3%
O=C(C1CCN(S(=O)(=O)c2cccs2)CC1)N1CCN(c2ccccc2F)CC1	-10.6%
COC(=O)[C@]12CCCCC=C1N(Cc1ccc3c(c1)OCO3)C(=O)[C@H](CC(=O)NCc1cccc(C(F)(F)F)c1)C2	-0.7%
Cc1ccc(C)n1-c1nnc(N2CCC(C(=O)NCc3ccc(F)cc3)CC2)s1	10.4%
O=C(COCc1cc(-c2ccco2)on1)Nc1cccc(O)c1	0.0%
CC(C)Cc1ccc(S(=O)(=O)N2CCC(c3ccncc3)CC2)cc1	-0.1%
Clc1ccc(CCNC(c2ccc(Cl)cc2)c2nnc(-c3ccccc3)o2)cc1 (centres undefined)	-1.6%
O=C(NCc1ccccc1Cl)[C@H]1CCCN1C(=O)[C@H]1CCCN1	1.3%
CCn1c2ccccc2c2nnc(N3CCN(c4cccc(Cl)c4)CC3)nc21	1.3%
COc1cc(NS(=O)(=O)c2ccc3c(c2)OCC(C(=O)N2CCCC2)O3)cc(OC)c1 (centres undefined)	-2.8%
CCC(=O)Nc1ccccc1-c1nc2ccccc2n(CC(=O)Nc2ccccc2OC)c1=O	-0.6%
Cc1ccc(-n2nc3c(N4CCC(C(=O)NC5CCCCC5)CC4)nnc(C)c3c2C)cc1	-4.2%
Cc1ccc(NS(=O)(=O)c2ccc3c(c2)C(C(C)C)C(=O)N3)cc1C (centres undefined)	1.3%
COc1cccc(C2c3c(-c4ccccc4O)n[nH]c3C(=O)N2Cc2cccnc2)c1 (centres undefined)	-3.3%
Oc1c(C(Nc2cccnc2)c2ccc(C(F)(F)F)cc2)ccc2cccnc12 (centres undefined)	-0.6%
COC(=O)c1ccc(Oc2nc3c(c(=O)n(C)c(=O)n3C)n2Cc2ccc(Cl)c(Cl)c2)cc1	-0.1%
COC(=O)[C@@]1(Sc2ccccc2)CC(=O)N[C@@H]1c1ccccc1	0.9%
COc1ccc(OC)c(NS(=O)(=O)c2ccc3[nH]c4c(c3c2)CCCCC4)c1	-8.2%
Cc1ccc(-n2c(=O)c3c(c4cc(C)ccc4n3C)n(Cc3ccc(F)cc3)c2=O)cc1	?
Cc1ccc2nc(CN3CCN(S(=O)(=O)c4ccc(C(C)C)cc4)CC3)oc2c1	0.0%
COc1ccc(C(=O)Nc2ccc(-c3nc4ncccc4o3)cc2C)cc1Br	?
CCOC(=O)c1cnc2c(ccc3ccccc32)c1Nc1cccc(OC)c1	0.4%
SMILES	ClpP mod
COc1cccc(C(=O)Nc2ccc3oc(-c4ccc5ccccc5c4)nc3c2)c1	5.1%
Cc1ccc(-c2noc(-c3ccc(N4CCN(C)CC4)c([N+](=O)[O-])c3)n2)cc1	0.5%
COc1cc(OC)cc(-c2nc3nc(C)c(CCC(=O)Nc4ccc(C)cc4)c(C)n3n2)c1	0.5%
O=C(CSc1nc(Nc2ccccc2)c2ccccc2n1)c1ccc(Cl)cc1	-1.8%
CCOc1cc(C(=O)NCc2nc(-c3cccc(C)c3)no2)cc(OCC)c1OCC	2.0%
Cc1cccc(OCC(=O)Nc2ccc3c(c2)nc(CCNC(=O)c2ccco2)n3C)c1	0.3%
COc1ccc(-n2nc3cc(C)c(NC(=O)c4ccc(-c5ccc(Cl)cc5)o4)cc3n2)cc1	-12.0%
C=C(C)Cn1c(SCC(=O)c2ccc(Br)cc2)nc2sc3c(c2c1=O)CCCC3	0.5%
CC(=O)c1cccc(NC(=O)CSc2nc3c(c(=O)[nH]2)CCC3)c1	-1.0%
O=C(NCCS(=O)(=O)N1CCN(c2ccc(F)cc2)CC1)c1ccccc1Br	-1.7%
CSc1cccc(NC(=O)CC(c2cccs2)N2Cc3ccccc3C2=O)c1 (centres undefined)	-4.0%
COc1ccc(CNC(=O)c2cc3c(=O)[nH]c4ccccc4c3s2)cc1	?
Cn1cc(-c2cc3n(n2)CCC(=O)N3CCCC(=O)Nc2ccc(F)cc2F)c2ccccc21	-29.4%
O=C(Nc1ccc(-c2nc3cc(NC(=O)c4ccccc4Cl)ccc3o2)cc1)c1ccccc1Cl	4.7%
COc1ccc(Nc2cc(C(=O)NCCCN3CCN(c4ccccc4F)CC3)c3ccccc3n2)c(OC)c1	4.4%
Cc1ccc(Cn2c(=O)n(CC3CCC(C(=O)N4CCOCC4)CC3)c(=O)c3sccc32)cc1 (centres undefined)	0.2%
CCOc1ccc(NC(=O)c2cc(S(=O)(=O)N3CCN(c4ccccc4F)CC3)ccc2F)cc1	-4.9%
Cc1c(Cl)cccc1-c1ccc(C(=O)Nc2ccc3oc(-c4cccnc4)nc3c2)o1	-6.0%
CCC1CN(C(=O)N2CCC(C(=O)NCCC3=CCCCC3)CC2)c2ccccc2O1 (centres undefined)	1.4%
CCc1ccc2nc(N3CCN(C(=O)c4ccco4)CC3)sc2c1	-6.4%
Cc1ccc(N2C(=O)[C@@H]3CSC(c4ccc(Cl)cc4)N3C2=O)cc1 (some centres undefined)	2.8%
Fc1ccc(Nc2c(-c3c[nH]c4ccccc34)nc3ccccn23)cc1	3.9%
COc1ccc(C(=O)N2CCC(C(=O)Nc3ccc(Cl)cc3)CC2)cc1	-7.3%
COc1ccc(S(=O)(=O)N2Cc3ccccc3CC2C(=O)Nc2cc(Cl)ccc2Cl)cc1 (centres undefined)	-2.5%
CCc1ccc2occ(CC(=O)N(Cc3ccccc3)C3CCS(=O)(=O)C3)c2c1 (centres undefined)	-0.9%

A different layout for some results above:
SMILES | ClpP mod
O=C(NCCS(=O)(=O)N1CCN(c2ccc(F)cc2)CC1)c1ccccc1Br | -1.7%
CSc1cccc(NC(=O)CC(c2cccs2)N2Cc3ccccc3C2=O)c1 (centres undefined) | -4.0%
COc1ccc(CNC(=O)c2cc3c(=O)[nH]c4ccccc4c3s2)cc1 | ?
Cn1cc(-c2cc3n(n2)CCC(=O)N3CCCC(=O)Nc2ccc(F)cc2F)c2ccccc21 | -29.4%
O=C(Nc1ccc(-c2nc3cc(NC(=O)c4ccccc4Cl)ccc3o2)cc1)c1ccccc1Cl | 4.7%
COc1ccc(Nc2cc(C(=O)NCCCN3CCN(c4ccccc4F)CC3)c3ccccc3n2)c(OC)c1 | 4.4%
Cc1ccc(Cn2c(=O)n(CC3CCC(C(=O)N4CCOCC4)CC3)c(=O)c3sccc32)cc1 (centres undefined) | 0.2%
CCOc1ccc(NC(=O)c2cc(S(=O)(=O)N3CCN(c4ccccc4F)CC3)ccc2F)cc1 | -4.9%
Cc1c(Cl)cccc1-c1ccc(C(=O)Nc2ccc3oc(-c4cccnc4)nc3c2)o1 | -6.0%
CCC1CN(C(=O)N2CCC(C(=O)NCCC3=CCCCC3)CC2)c2ccccc2O1 (centres undefined) | 1.4%
CCc1ccc2nc(N3CCN(C(=O)c4ccco4)CC3)sc2c1 | -6.4%
Cc1ccc(N2C(=O)[C@@H]3CSC(c4ccc(Cl)cc4)N3C2=O)cc1 (some centres undefined) | 2.8%
Fc1ccc(Nc2c(-c3c[nH]c4ccccc34)nc3ccccn23)cc1 | 3.9%
COc1ccc(C(=O)N2CCC(C(=O)Nc3ccc(Cl)cc3)CC2)cc1 | -7.3%
COc1ccc(S(=O)(=O)N2Cc3ccccc3CC2C(=O)Nc2cc(Cl)ccc2Cl)cc1 (centres undefined) | -2.5%
CCc1ccc2occ(CC(=O)N(Cc3ccccc3)C3CCS(=O)(=O)C3)c2c1 (centres undefined) | -0.9%

(listing goes on)
SMILES	ClpP mod
O=C(Cn1c(=O)nc(-c2ccccc2F)c2cc(Cl)ccc21)Nc1ccccc1C(F)(F)F	1.4%
Cc1cccc(NC(=O)C2CCN(c3nc4ccccc4[nH]3)CC2)c1C	0.7%
COc1cc(NC(=O)N2CCSc3ccccc32)cc(OC)c1OC	-3.2%
CNC(=O)c1ccc(-c2nc(CN3CCc4ccccc43)c(C)o2)cc1	1.8%
CCC1CN(C(=O)N2CCC(C(=O)N3CCN(c4ccc(F)cc4)CC3)CC2)c2ccccc2O1 (centres undefined)	0.9%
CC(C)Oc1ccc(CNC(=O)C2CCN(C(=O)c3sccc3-n3cccc3)CC2)cc1	-0.3%
CCc1nn(C(CC)C(=O)NCc2ccc(OC)c(OC)c2)c(=O)c2cc3oc(C)cc3n12 (centres undefined)	-8.5%
COCCNC(=O)Cc1ccc(NC(=O)N2CCCCc3ccccc32)cc1	2.7%
Cc1cccc(CSc2nc(=O)c3c(n2C)NC(=O)CC3c2cccc(O)c2)c1 (centres undefined)	-2.4%
Cc1c(C(=O)Nc2cccc(Cl)c2)sc2nc3n(c(=O)c12)N=C(c1cccc(Br)c1)CS3	-2.3%
COC(=O)[C@@]12C[C@@H](CC(=O)N3CCC(c4ccccc4)CC3)C(=O)N(Cc3ccco3)C1=CCC(C)(C)C2	-4.1%
O=C(C[n+]1ccnc2ccccc21)c1ccc(Br)cc1	1.2%
CCNC(=O)CC1C(=O)N(c2ccc(F)cc2)C(=O)N1Cc1ccc(OC)c(OC)c1 (centres undefined)	-8.7%
CCOC(=O)c1ccc(N2C(=O)c3[nH]nc(-c4ccccc4)c3C2c2cccs2)cc1 (centres undefined)	-15.1%
CCC(=O)N1CCc2cc(S(=O)(=O)NCc3ccc(C)cc3)ccc21	-0.1%
COc1ccc(-c2nc3ccccc3s2)cc1NC(=O)COc1ccccc1C	?
Cc1ccc(CSc2nc3ccncc3n2Cc2nc(-c3ccc(Cl)cc3)oc2C)cc1	6.0%
CCCCNC(=O)C(CC)Sc1nnc(-c2ccc(OC)c(OC)c2)c(-c2ccc(OC)c(OC)c2)n1 (centres undefined)	-8.9%
O=C(COc1ccc(F)cc1)OCc1cc(=O)n2nc(C3CCCCC3)sc2n1	-14.9%
COc1ccccc1-c1nnc(SCC(N)=O)o1	-2.5%
CCCN(CCC)c1nc(N)nc(C#N)n1	-0.6%
COc1ccccc1N1CCN(C(=O)c2cc3c(=O)n(Cc4cccnc4)ccc3nc2C)CC1	?
O=C(COCc1cc(-c2cccs2)on1)Nc1ccc(OC(F)(F)F)cc1	1.5%
O=C(Nc1cccc(Cl)c1)c1ccc2c(c1)CCN2S(=O)(=O)c1ccccc1	-6.7%
CN(c1ccc(F)cc1)S(=O)(=O)N1CCCC(C(=O)NCc2ccccc2Cl)C1 (centres undefined)	1.8%
SMILES	ClpP mod
COc1ccccc1CNC(=O)c1cn(C)c2ccc(S(=O)(=O)N(C)C3CCCCC3)cc2c1=O	-6.4%
O=C(NCCc1csc2nc(-c3ccc(F)cc3)nn12)c1ccco1	-2.5%
CCn1cc(S(=O)(=O)c2ccccc2)c(=O)c2cc(F)c(F)cc21	-0.1%
CC(C)c1ccc(NC(=O)CSc2nc(=O)n(Cc3ccccn3)c3c2CCC3)cc1	-2.4%
CC(C)C[C@H]1CN(CCCC[C@@H]2CNC(=O)C(=O)N2Cc2ccccc2)C(=O)C(=O)N1CCC1CCCCC1	0.6%
O=C(NCc1cccc(Cl)c1)c1ccc(NC(=O)N2CCSc3ccccc32)cc1	-1.5%
